MgrA DNA FP: S. aureus MgrA activity modulators, primary screen, biochemical, S. aureus Newman, fluorescence polarization | MgrA-DNA binding | inhibition, %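 (about 10 µg/mL by stock and volumes)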 | 84,000 compounds, 0.13% hits;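 active means above 50% in either of two replicates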;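 further: 0% = protein plus DNA without compound and 100% = DNA alone without protein; higher means less MgrA bound to DNA so lower polarization; one replicate is shown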
S aureus helic: inhibitors of S. aureus replicative helicase, primary screen, biochemical, fluorescence unwinding readout | replicative DNA helicase (DnaC/DnaB), Staphylococcus aureus | purified S. aureus helicase, fluorescence unwinding assay; about half of the hits fall short of the stated cut | inhibition, %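 (tested at about 80 µM)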 | 120,000 compounds, 0.05% hits | AID 485395, 2010;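 active means both duplicates at 50% or more, or one of them with a favoured structure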;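 further: 0% = mean of negative control wells and 100% = mean of positive control wells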
Active calls of the source: *; / = no result given. Not all compounds are listed (hit frequency here may not be typical).

SMILES | MgrA DNA FP | S aureus helic
CC(C)N1CCC(=O)N(c2ccc3c(c2)CCO3)C1=O | / | -8
Cc1cc(N2CCC(C(=O)NCCCN3CCCC3)CC2)n2nc(C)c(-c3ccc(Cl)cc3)c2n1 | / | 19
CCc1cccc(NS(=O)(=O)c2ccc3c(c2)CC(C)N3C(C)=O)c1 (configuration not stated) | 0.7 | -4
CCN(CC)c1cccc(NC(C)=O)c1 | 2.0 | /
CSc1nc(C2CC2)cc(-c2ccccc2)c1C#N | / | 9
CCOc1ncccc1C(=O)Nc1ccnn1C(=O)c1cccnc1OCC | / | -2
CCOC(=O)c1cc2c(ccn2C)n1CC(=O)N1CCC(Cc2ccccc2)CC1 | -2.7 | 6
Cc1[nH]c2ccccc2c1C(=O)C(C)Sc1nnc(-c2ccccc2)o1 (configuration not stated) | / | 4
Cc1ccc2nc(-c3ccccc3)cn2c1 | 2.2 | 3
COc1ccc2occ(C(O)c3ccccc3)c2c1 (configuration not stated) | -2.5 | 18
COc1ccc(C2=CC(=O)N(c3ccccc3)C(c3ccccc3)O2)cc1 (configuration not stated) | 1.0 | 8
O=C(O)c1ccc(C2SCC(=O)N2CCc2ccccc2)cc1 (configuration not stated) | / | 6
CCCN(C(=O)C1CCCN1S(=O)(=O)c1cccc2nsnc12)c1ccc(C(C)C)cc1 (configuration not stated) | -0.8 | 20
Cc1ccc(NC(=O)c2cccnc2)cc1C | -3.9 | 8
CCCCN(CC)C(=O)c1n[nH]c(=O)c2ccccc12 | / | -2
CC1CCCN(C(=O)COC(=O)c2ccc(Br)cc2)C1 (configuration not stated) | 3.3 | -10
O=C(Cn1cnc2ccccc2c1=O)OCC(=O)c1ccc2c(c1)OCO2 | / | -5
O=C1CCCC(O)=C1C=Nc1ccc(Br)cc1 | 1.5 | 12
CC(=O)Nc1ccc(C(=O)OCC(=O)Nc2cc(Cl)cc(Cl)c2)cc1 | 0.1 | -5
C=CCNC(=O)CCn1c(=O)oc2ccccc21 | / | -11
CN(C)c1cccc(C(=O)NCC(c2cccs2)N(C)C)c1 (configuration not stated) | / | -11
CS(=O)(=O)c1ccc2nc(NC(=O)c3ccccc3)sc2c1 | -2.0 | 1
O=C1Nc2ccccc2C1(O)Cc1ccncc1 (configuration not stated) | 1.6 | /
COc1ccc(C2C(C#N)=C(N)Oc3c2ccc2cccnc32)cc1 (configuration not stated) | 1.9 | -18
CCOC(=O)C1=C(C)N=c2s/c(=C3\C(=O)N(C)c4ccccc43)c(=O)n2C1c1ccc(OC)cc1 (configuration not stated) | -1.1 | /
O=C(NCc1ccco1)c1cc(Cl)cc(Cl)c1 | 0.3 | 23
Cn1ccnc1C(=O)c1ccccc1Cl | 0.4 | 16
Cc1cc(C)c(NC(=S)NN=C2CCCCCC2)c(C)c1 | 2.2 | /
CCOC(=O)c1c(C)[nH]c(C)c1C(=O)Cn1nnc2ccccc2c1=O | / | 14
C=Cn1c(C(=O)O)ccc1-c1ccc(C)cc1 | -0.3 | -4
CCC(Sc1nnc(C)c(=O)[nH]1)C(=O)Nc1ccccc1C#N (configuration not stated) | 0.2 | -7
COc1ccc(Cc2nc(-c3ccc(Br)cc3)no2)cc1 | 2.4 | 7
Cc1nc2cc3c(cc2[nH]1)OCCO3 | / | -1
O=C1NC(=S)N(c2ccccc2)C(=O)/C1=C\c1ccoc1 | 76* | 0
CC(=O)Oc1ccc2oc(-c3ccccc3)c(C(=O)O)c2c1 | -0.7 | 17
c1coc(CNC2CCCC2)c1 | -0.7 | 7
S=C(NCC(c1cccnc1)N1CCOCC1)NC1CCCCC1 (configuration not stated) | / | 3
CC(OC(=O)CCc1ccc(S(=O)(=O)N2CCOCC2)cc1)C(=O)Nc1ccc(Cl)cn1 (configuration not stated) | / | 16
CC(=O)Sc1nc(-c2ccc(C)cc2)[nH]c1S(=O)(=O)c1ccccc1 | / | 10
COc1cc(C(=O)Nc2cc3c(cc2N2CCCCC2)n(C)c(=O)n3C)cc(OC)c1OC | / | 36
COc1cccc2sc(N(C)c3ccccc3)nc12 | -1.9 | 6
N/C(=N\S(=O)(=O)c1cc(C(F)(F)F)cc(C(F)(F)F)c1)N1CCSCC1 | -0.7 | /
O=C(OCC(=O)N1N=C(c2ccc(Cl)cc2)CC1c1ccco1)c1cc(S(=O)(=O)N2CCOCC2)ccc1Cl (configuration not stated) | / | -12
CC(C)n1c(CCNC(=O)C(C)(C)C)nc2ccccc21 | / | -11
COc1cccc(CNCc2cccn2-c2nnc(N3CCCC3)s2)c1 | / | 10
Cc1cccc(Cc2cnc(NC(=O)Cn3cnc4ccccc4c3=O)s2)c1 | / | -16
Cc1ccccc1Cc1c(C)nc2c(C(=O)NCc3ccco3)cnn2c1C | / | 9
CN1CCCNC1c1ccc(-c2ccc(Br)cc2)o1 (configuration not stated) | 5.0 | 3
COc1ccc(O)c(C(=O)c2cnc3c(c2)c(C)nn3CCO)c1 | / | -6
CC(C)N1C/C(=C/c2ccc(Br)o2)C(=O)/C(=C/c2ccc(Br)o2)C1 | / | 5
CC(C)(C)c1nnc(SCC(=O)c2ccc(F)c(F)c2)n1N | / | -1
Cc1ccc(N2C(=O)CC(Sc3ccccc3C(=O)N3CCOCC3)C2=O)cc1 (configuration not stated) | / | 4
O=C(O)c1cccc(-n2nnnc2SCc2ccccn2)c1 | -2.4 | 5
Cc1n[nH]c(C)c1S(=O)(=O)NCc1ccccc1 | / | 18
CCOc1ccc(CN(C)C(C)c2nnc(-c3ccc(C)cc3)o2)cc1 (configuration not stated) | / | -6
COc1cc(NC(=O)CCC2CCCC2)c(C(=O)O)cc1OC | / | -13
O=c1cc(CCl)c2ccc(O)cc2o1 | 3.6 | 4
CCCN(CCC)C(=O)c1ccc2c(c1)N(Cc1ccccc1F)C(=O)c1ccccc1S2(=O)=O | 1.9 | 12
COc1ccc(CN2CCN(c3ccccn3)CC2)cc1OCc1ccccc1 | 0.6 | 7
CCC(CC)(CN(C)C)OC(=O)c1ccccc1 | -0.6 | 10

19 of the compounds above, as comma-separated lines:
Compound,MgrA DNA FP,S aureus helic
COc1cc(C(=O)Nc2cc3c(cc2N2CCCCC2)n(C)c(=O)n3C)cc(OC)c1OC,/,36
COc1cccc2sc(N(C)c3ccccc3)nc12,-1.9,6
N/C(=N\S(=O)(=O)c1cc(C(F)(F)F)cc(C(F)(F)F)c1)N1CCSCC1,-0.7,/
O=C(OCC(=O)N1N=C(c2ccc(Cl)cc2)CC1c1ccco1)c1cc(S(=O)(=O)N2CCOCC2)ccc1Cl (configuration not stated),/,-12
CC(C)n1c(CCNC(=O)C(C)(C)C)nc2ccccc21,/,-11
COc1cccc(CNCc2cccn2-c2nnc(N3CCCC3)s2)c1,/,10
Cc1cccc(Cc2cnc(NC(=O)Cn3cnc4ccccc4c3=O)s2)c1,/,-16
Cc1ccccc1Cc1c(C)nc2c(C(=O)NCc3ccco3)cnn2c1C,/,9
CN1CCCNC1c1ccc(-c2ccc(Br)cc2)o1 (configuration not stated),5.0,3
COc1ccc(O)c(C(=O)c2cnc3c(c2)c(C)nn3CCO)c1,/,-6
CC(C)N1C/C(=C/c2ccc(Br)o2)C(=O)/C(=C/c2ccc(Br)o2)C1,/,5
CC(C)(C)c1nnc(SCC(=O)c2ccc(F)c(F)c2)n1N,/,-1
Cc1ccc(N2C(=O)CC(Sc3ccccc3C(=O)N3CCOCC3)C2=O)cc1 (configuration not stated),/,4
O=C(O)c1cccc(-n2nnnc2SCc2ccccn2)c1,-2.4,5
Cc1n[nH]c(C)c1S(=O)(=O)NCc1ccccc1,/,18
CCOc1ccc(CN(C)C(C)c2nnc(-c3ccc(C)cc3)o2)cc1 (configuration not stated),/,-6
COc1cc(NC(=O)CCC2CCCC2)c(C(=O)O)cc1OC,/,-13
O=c1cc(CCl)c2ccc(O)cc2o1,3.6,4
CCCN(CCC)C(=O)c1ccc2c(c1)N(Cc1ccccc1F)C(=O)c1ccccc1S2(=O)=O,1.9,12

Remaining list, next part
SMILES | MgrA DNA FP | S aureus helic
COc1ccc(NC(=O)COC(=O)c2cc(-c3ccc(C)o3)nc3ccccc23)cc1 | / | 13
COc1ccc(/C=C2\Oc3cc(OCc4cccc(C)c4)ccc3C2=O)cc1 | 2.2 | -1
O=C(NC1=NCCS1)c1ccc(S(=O)(=O)N2CCc3ccccc3C2)cc1 | / | -3
CC1=C(C(=O)c2ccccc2)CNC(=S)N1 | -0.7 | -6
Cc1c(C(=O)O)cc(C(C)(C)C)n1-c1ccccc1 | -0.6 | /
CCOc1ncnc2c1nnn2Cc1ccccc1Cl | 3.2 | /
CCCCN(C)Cc1c(O)ccc2c(=O)c(Oc3cc(C)cc(C)c3)coc12 | / | 28
COC(=O)c1cc(C#N)c(C)nc1Sc1nccn1-c1cc(Cl)ccc1Cl | -0.8 | /
O=C(CSc1ccccc1C(=O)O)c1ccc(Cl)cc1 | -0.5 | /
O=C(c1cccs1)c1cnc2ccccn2c1=O | / | -4
O=C1CSC(c2ccccc2C(F)(F)F)N1c1ccc(Br)cc1 (configuration not stated) | 0.4 | /
CCOC(=O)c1ccc(Nc2nc3nonc3nc2N(CC)CC)cc1 | -0.8 | /
Cc1ccc2nc(C3=C(O)CN(CC(C)C)C3=N)[nH]c2c1 | / | 20
COc1cc([N+](=O)[O-])cc2sc(NC(=O)c3ccccc3NS(=O)(=O)c3ccc(C)cc3)nc12 | -2.6 | /
CC(C)(C)NS(=O)(=O)c1ccc(F)cc1 | -0.3 | -3
O=C(O)c1cc([N+](=O)[O-])ccc1NCCc1ccccc1 | -1.2 | /
CCOc1ccc(CC(=O)Nc2ccc(C/C(N)=N/O)cc2)cc1OCC | / | 8
CCN(Cc1nc(-c2cccc(Br)c2)no1)C(C)C(=O)Nc1ccc(C)cc1 (configuration not stated) | / | -9
COc1ccc2cc(Br)ccc2c1CC(=O)NC(C)C | / | -14
COc1ccc(CNC(=O)Cc2nc(-c3ccc(OC)cc3)no2)cc1 | / | 22
CCN(CC)C(=O)c1oc2ccc(S(=O)(=O)N3CCCC3)cc2c1C | 0.5 | 7
Cn1c(C(C#N)c2nc(C#N)c(C#N)nc2Cl)nc2ccccc21 (configuration not stated) | / | 24
COc1cc2c(cc1OC)C(C)N(C(=O)c1nn(-c3ccccc3)nc1C)CC2 (configuration not stated) | -0.2 | /
CN(Cc1ccccc1)C(=O)c1cc2c(s1)-c1ccccc1S(=O)(=O)C2 | -2.5 | 5
O=c1[nH]c(=O)n([C@H]2C[C@@H](O)[C@@H](CO)O2)cc1C(F)(F)F | 3.6 | /
CC1CCCC(C)N1C(=O)COc1ccc(-c2nnco2)cc1 (configuration not stated) | / | 11
CCOC(=O)N1CCN(C(=O)CSc2nnc(Cc3cccn3C)n2-c2ccc(C)cc2)CC1 | / | -19
CCN(CC)C(=O)Cc1cn(C)c2ccccc12 | / | 15
CCOc1ccc(C(=O)c2cccs2)cc1 | -1.0 | 18
Cc1ccc(NC(=O)COC(=O)CSC2CCS(=O)(=O)C2)cc1C (configuration not stated) | / | 37
O=c1oc(C2CC2)nc2ccccc12 | -2.5 | /
CCC(C(=O)N1CCc2ccccc2C1)n1nc(C)n2c(cc3sccc32)c1=O (configuration not stated) | / | 9
CCc1ccc(C2CC(=O)NC3=C2C(=O)CCC3)cc1 (configuration not stated) | 0.6 | 8
O=S(=O)(Nc1nc2ccccc2nc1OCC(F)(F)F)c1cccs1 | / | -8
N#CCCN(CCN1CCCC1)S(=O)(=O)c1cccc2nsnc12 | -0.8 | /
O=c1[nH]c2c(=O)[nH]c(=S)[nH]c2nc1/C=C(\O)c1ccccc1 | 20 | /
CCOC(=O)CSc1nsc(SCC(=O)OCC)c1C#N | / | -4
COc1ccc(CN2CCCN(Cc3ccc(OC)cc3)C2c2cccc(C)n2)cc1 | 2.1 | /
Cc1nc(SCc2c(F)c(F)c(F)c(F)c2F)c2ccccc2n1 | / | -1
O=C(Cn1nc(Cc2ccncc2)c2ccccc2c1=O)N1CCCc2ccccc21 | 8.9 | -1
CC1CC(C)CN(C(=O)c2cc(-c3ccccn3)nc3ccc(S(=O)(=O)N4CCOCC4)cc23)C1 (configuration not stated) | -0.3 | 2
CN1CCN(CC(O)COc2ccc(C3CCCCC3)cc2)CC1 (configuration not stated) | / | -23
COc1ccc(C(=O)N/N=C2\CCc3ccccc32)cc1OC | / | 20
O=C(c1ccc(Cl)cc1)C1CCN(C(=O)c2cnc3ccccc3n2)CC1 | -1.8 | /
CCn1cc(CNC(=S)NC2CCCC2)cn1 | -3.5 | 0
CSc1ccc(-c2cc(=O)c3ccccc3o2)cc1 | 22 | 17
Cc1ccc(C)c(NC(=O)C(OC(=O)c2cccnc2Cl)c2ccccc2)c1 (configuration not stated) | 0.9 | 8
O=S(=O)(c1cc(Br)c(Cl)s1)N1CCOCC1 | 1.9 | /
O=C(O)CNC(=O)c1ccc(CO)cc1 | / | -4
COc1cc(NC(=O)CCS(=O)(=O)c2ccc3c(c2)NC(=O)C(C)S3)cc(OC)c1 (configuration not stated) | / | -23
Cn1nc(C(F)(F)F)c(/C=N/O)c1Sc1ccccc1 | -0.2 | /
Cc1cccc(Nc2nc(NC(C)C)nc(Oc3ccc(=O)n(C)n3)n2)c1 | / | 11
Cc1cc(NC(=O)C2CC3CCCN3C23C(=O)N(C)c2ccccc23)ccc1Br (configuration not stated) | / | 12
O=C(Cc1cn(Cc2cccc(Cl)c2)c2ccccc12)Nc1nc2ccccc2s1 | 0.4 | -4
